Screening results from PubChem.
Bst PK mod – pyruvate kinase (B. stearothermophilus) modulation; partly purified Bacillus stearothermophilus pyruvate kinase, luminescence ATP production; ribose 5-phosphate activator present at AC10; 51,000 compounds, 1.2% hits; Potency, µM; AID 361; in the data active means potency below about 11 µM; inconclusive means mostly about 12 µM to 25 µM; inactive means weaker than that;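 the screen sought inhibitors and activators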;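 further: potency means the concentration at half of the fitted maximal effect; scaled between full activation by ribose 5 phosphate and full inhibition by luteolin; about four in five hits inhibit and the cells do not say which; series up to 57 µM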
TsaE inh – inhibitors of E. coli YjeE (TsaE) | P0AF67 | purified YjeE, fluorescence polarisation of a bound ADP probe | Potency, µM | 71,000 compounds, 0.05% hits | AID 605; active = well fitted falling curve; inconclusive = weaker or top-dose-only fall, or a rising curve; inactive = flat or poorly fitted curve;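 further: top concentration of the series not given in the record; excess ADP was the control for the full effect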
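Fluorescence polarization of a BODIPY Texas Red–ADP probe (2 uM) bound to purified YjeE (10 uM) was read after 15 min room-temperature incubation with compounds. Loss of polarization marks inhibitors; ADP serves as titrated control.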
An asterisk follows results filed as active; i = inactive; ? = inconclusive; . = not tested or not shown. The list is partial (hit frequency here may not be typical).

no.	compound	Bst PK mod	TsaE inh
1	CCCS(=O)(=O)c1c(S(=O)(=O)CCC)c2cc(CC)ccn2c1C(=O)OC	>57	i
2	CCSc1nnc(NC(=O)CSc2nc3c(c(=O)n2C)SC(C)C3)s1 (stereo not given)	>57	i
3	CN(Cc1cnc2nc(N)nc(N)c2n1)c1ccc(C(=O)N[C@H](CCC(=O)O)C(=O)O)cc1	.	i
4	COc1ccc(OC)c(C2C(C(=O)c3cccs3)=C(O)C(=O)N2CCN(C)C)c1 (stereo not given)	>57	i
5	Cc1ccc(CNC(=O)C2c3ccccc3C(=O)N(C)C2c2c[nH]c3ccccc23)o1 (stereo not given)	>57	i
6	COCC(=O)N1CCC[C@@]2(CCN(Cc3ccc(C#N)cc3)C2)C1	.	i
7	COC(=O)c1ccc(Oc2nc3c(c(=O)n(C)c(=O)n3C)n2CCC(C)C)cc1	>57	i
8	c1cc2nncn2nc1N1CCCC1	>57	i
9	Cc1ccc(SCc2nc(-c3ccccc3)no2)cc1	>57	i
10	COCCNC(=O)c1ccc2ccccc2n1	>57	i
11	CN(Cc1ccccc1)Cn1ccnc1	.	i
12	O=C(COc1ccccc1)Nc1cccc(-c2nnc(-c3ccccc3)o2)c1	>57	i
13	CC1CC(C(F)(F)F)n2ncc(C(=O)O)c2N1 (stereo not given)	>57	i
14	CCOC1OC2C(CO)OC(n3cnc4c(N)ncnc43)C2O1 (stereo not given)	.	i
15	CCCOc1ccc([C@@H]2C3CN(C(=O)OCC)CC=C3C(C#N)=C(N)C2(C#N)C#N)cc1OC (stereo not given in full)	>57	i
16	COc1ccccc1CNc1nc2nc3c(c(=O)n2[nH]1)CCC3	>57	i
17	COCCn1c(C)cc(C(=O)COC(=O)c2cc3c(s2)CCC3)c1C	>57	i
18	CC[C@@H](C)[C@H](NS(=O)(=O)c1ccc(C)cc1)C(=O)N1CCC(C(=O)NCC(=O)O)CC1	>57	i
19	CN(CC(=O)NCc1ccco1)S(=O)(=O)c1ccc2c(c1)n(C)c(=O)c(=O)n2C	>57	i
20	COCCCNC(=O)c1ccccc1NS(=O)(=O)c1ccc(C)cc1	>57	i

Sorted by molecular weight (lowest first): part of the list above.
no.	compound	Bst PK mod	TsaE inh
10	COCCNC(=O)c1ccc2ccccc2n1	>57	i
13	CC1CC(C(F)(F)F)n2ncc(C(=O)O)c2N1 (stereo not given)	>57	i
6	COCC(=O)N1CCC[C@@]2(CCN(Cc3ccc(C#N)cc3)C2)C1	.	i
20	COCCCNC(=O)c1ccccc1NS(=O)(=O)c1ccc(C)cc1	>57	i

(next part)
no.	compound	Bst PK mod	TsaE inh
21	Cc1nc(NCc2ccco2)c(C#N)c2c1COC(C)(C)C2	>57	i
22	Cc1cc2cc(CN(Cc3cccs3)Cc3nnnn3CC3CCCO3)c(=O)[nH]c2cc1C (stereo not given)	>57	i
23	CCC(CC)C(=O)Nc1c2cnn(-c3ccccc3)c2nc(=O)n1-c1ccccc1	>57	i
24	CCOC(=O)N1CCC(NS(=O)(=O)c2ccc3c(c2)C(C)(C)C(=O)N3C)CC1	>57	i
25	CCCCc1ccc(NC(=O)CSC2=C(C#N)C(c3ccco3)C3=C(CCCC3=O)N2)cc1 (stereo not given)	>26	.
26	CC(=O)c1cnc(Nc2nc(C)c3cccc(C)c3n2)nc1C	>57	i
27	CC1CCCCN1C(=O)Cn1c(=O)oc2ccccc21 (stereo not given)	>57	i
28	Cc1cc(C)n(S(=O)(=O)c2ccc(Cl)c(Cl)c2Cl)n1	.	i
29	O=C(Nc1cccc(C(F)(F)F)c1)C1CCCN(S(=O)(=O)c2cnc[nH]2)C1 (stereo not given)	>57	i
30	CCCCC(=O)Nc1ccc(C(N)=O)cc1	>57	i
31	CCNc1ncc2nc(-c3cccs3)c(=O)n(C[C@H]3CCCO3)c2n1	.	i
32	Cc1cccc(NC(=O)c2cc(NC(=O)C3CC=CCC3C(=O)O)ccc2N2CCOCC2)c1 (stereo not given)	>57	i
33	O=C(Cn1cnc2c(nnn2Cc2ccccc2F)c1=O)NCC1CCCO1 (stereo not given)	>57	i
34	Cc1nc2ncnn2c(N2CCCC(C(=O)Nc3ccc4c(c3)CCC4)C2)c1C (stereo not given)	>57	i
35	O=C(OCc1nnc(-c2ccccc2)o1)c1ccc2ccccc2n1	i	i
36	COCCNC(=O)[C@@]1(C)C=C[C@@H](Cc2ccccc2)N1C(=O)c1ccccc1	.	i
37	CCN(Cc1ccccc1)C(=O)CSc1nc(C)cc(C)c1C#N	.	i
38	O=C(c1ccco1)N1CCC2(CC1)CN(c1ccccn1)C2	.	i
39	CCCc1nnc(NC(=O)Cn2c(=O)oc3ccccc32)s1	>57	i
40	CC12/C(=N/O)C3C4CC5C3/C(=N/O)C1C5C42 (stereo not given)	>57	i
41	Nc1cccc(OCc2nc(N)nc(N)c2-c2ccc(Cl)cc2)c1	.	i
42	COc1cc(C)c(C#N)c(OC)n1	>57	i
43	CS(=O)(=O)N1CCC2(CCN(c3ccncc3)CC2)CC1	.	i
44	O=C(O)CN(CC(=O)O)CC(=O)O	.	i
45	Cc1nc(N)nc2ccccc12	.	i
46	COc1cc2cc(CN(CCN3CCCC3)C(=O)Nc3ccccc3Cl)c(=O)[nH]c2cc1OC	>57	i
47	COc1ccccc1NC(=O)CSc1nc2ccccc2c(=O)n1CCNC(C)=O	>57	i
48	COc1cccc(N2CCN(Cc3coc4c(Cl)cc(Cl)cc4c3=O)CC2)c1	.	i
49	CCCCN(C)C(=O)CCCCn1c(=O)[nH]c2cc(OCC)c(OCC)cc2c1=O	>57	i
50	COc1cc(C(=O)Nc2ccc3c(c2)OCO3)ccc1-n1cnnn1	>57	i
51	Cc1cc(Br)ccc1OCc1nc(-c2cccnc2)no1	>57	i
52	Cc1noc(C)c1CSc1nnc(-c2ccccc2)n1Cc1ccco1	>57	i
53	O=[N+]([O-])c1ccccc1N=Nc1c(O)[nH]c2ccc(S(=O)(=O)O)cc12	.	i
54	COc1ccccc1CC(=N)N1C[C@@H]2C(=O)CCC(c3ccccc3)(c3ccccc3)[C@@H]2C1	.	i
55	CC(=O)Nc1ccc(NC(C)=O)s1	.	i
56	O=C(Oc1cccc2cccnc12)c1cccs1	i	i
57	COc1cccc(-c2nnn(CCC(=O)O)n2)c1	>57	i
58	O=C(CSc1nnc(COc2ccc(Cl)cc2)o1)N1CCN(c2ccccc2)CC1	.	i
59	Cc1ccc(/C(C#N)=C/c2cccc([N+](=O)[O-])c2)cc1	.	i
60	O=C(CSc1ncn(-c2ccccc2)n1)N1CCc2ccccc21	>57	i
61	CC(=O)c1c(C)[nH]c(C(=O)NCCN2CCC(C)CC2)c1C	>57	i
62	CCc1ccc(OCc2ccc(C(=O)NCc3ccccn3)o2)cc1	>57	i
63	O=C(CC(C(=O)N1CCc2ccccc21)n1ccnc1)N1CCc2ccccc2C1 (stereo not given)	>57	i
64	COc1cccc(Cn2c(=O)c(-c3cccs3)nc3cnc(Nc4ccccc4)nc32)c1	.	i
65	CC1CCc2c(nc3ncnn3c2N2CCN(c3ccccc3F)CC2)C1 (stereo not given)	>57	i
66	CCN(CC)CCN1C(=O)C(=O)/C(=C(/O)c2ccc(C)cc2)C1c1cccnc1 (stereo not given)	>26	.
67	COc1cc(C(Nc2ccccn2)c2ccc3ccc(C)nc3c2O)cc(OC)c1O (stereo not given)	>57	i
68	Fc1ccc(Cn2nnnc2CN2CCN(C3CCCCC3)CC2)cc1	>57	i
69	CC1CCCCC1NC(=O)Cn1ncc2ccccc21 (stereo not given)	.	i
70	Nc1nc(-c2cccc(NS(=O)(=O)c3ccccc3)c2)cs1	>57	i
71	CCc1nnc(NCC(=O)N2CCc3ccccc32)s1	>57	i
72	CCCCc1nc(NCCN2CCOCC2)c(C#N)c2c1COC(C)(C)C2	>26	.
73	Cc1nc2ccc(NC(=O)N3CCSCC3)cc2s1	>57	i
74	CCN1CCN(/C=N/c2nc3c(s2)CCCC3)CC1	?	i
75	CCOC(=O)CC(=O)Nc1ccc(C(=O)OCC)cc1	.	i
76	CC1CCN(C(=O)c2ccc(NC(=O)C3CCCO3)cc2)CC1 (stereo not given)	>57	i
77	CCOC(=O)N1CCC(NC(=O)CS(=O)(=O)Cc2nc(-c3cccc(OC)c3)oc2C)CC1	>57	i
78	COc1ccc(CCN(C)C(=O)CN2C(=O)c3ccccc3S2(=O)=O)cc1OC	>57	i
79	c1ccc2c(c1)ncn2CCC1CCCCC1	>57	i
80	Cc1cc(C)cc(-n2cc3c(=O)n(C)c(=O)n(C)c3c2)c1	.	i

Later entries
no.	compound	Bst PK mod	TsaE inh
81	CC12CCC(=O)N1C(C(=O)OCC(=O)Nc1sccc1C#N)CS2 (stereo not given)	>57	i
82	Cc1nn(Cc2ccccc2)c(C)c1NC(=O)CSc1nnc(-c2cc(Cl)ccc2O)n1C	>57	i
83	CCOC(=O)CSc1nc(N)c(C#N)c(-c2ccc(OCC)cc2)c1C#N	>57	i
84	CN1CCN(/C=N/c2c(C#N)cnn2-c2ccccc2)CC1	>57	i
85	Cc1ccc(CNC(=O)CCS(=O)(=O)c2cccc3nonc23)cc1	>57	i
86	O=C(O)c1ccc(-c2ccc(O)c(F)c2)cc1	.	i
87	c1ccc2nc3c(nc2c1)[nH]c1ccccc13	4.1*	i
88	Cc1nc2ccccc2c(=O)n1/N=C/c1ccc(N(C)C)cc1	>57	i
89	CSc1cccc(NC(=O)c2c(Cl)cnn2C)c1	>57	i
90	COc1ccc2c3c(cccc13)OCC2=O	>57	i
91	CCOC(=O)c1c2c(n3ccccc13)C(=O)c1ccccc1C2=O	.	i
92	Cc1cc(C)n(-c2nc3c(c(=O)[nH]c(=O)n3C)n2C(C)C)n1	>57	i
93	Nc1nc(SCc2ccccc2[N+](=O)[O-])c2[nH]cnc2n1	.	i
94	COc1cccc(NC(=O)c2cn(C)c(=O)c3cc(OC)c(OC)cc23)c1	>57	i
95	N/C(=N\S(=O)(=O)c1cccs1)c1ccccc1	>57	i
96	COc1ccc2c(c1)c1nc(SCC(C)C)n(CCO)c(=O)c1n2C	.	i
97	N#Cc1c(SCC(=O)N2CCOCC2)nsc1SCC(=O)N1CCOCC1	.	i
98	CC(Sc1nnnn1C)C(=O)Nc1ccccc1-c1ccccc1 (stereo not given)	>57	i
99	c1ccc(CCn2nnnc2C(c2cccs2)N2CCOCC2)cc1 (stereo not given)	>57	i
100	CC(C)COP(=O)(c1ccc(N(C)C)cc1)C(O)c1ccccc1F (stereo not given)	>57	i
101	c1ccc(CC2CCN(c3nnnn3-c3ccccc3)CC2)cc1	>57	i
102	CC1N/C(=C\C(=O)c2ccccc2)N(O)C1(C)C (stereo not given)	i	i
103	COc1ccc(C2C(C(N)=O)=C(C)Nc3nc(-c4ccccc4)nn32)cc1OC (stereo not given)	.	i
104	COc1cccc2cc(C(=O)N3CCc4ccccc43)c(=O)oc12	>57	i
105	Cc1ccc(NC(=O)COS(=O)c2ccc(C)cc2)cc1 (stereo not given)	>57	i
106	COc1ccc(NC2C=CS(=O)(=O)C2)c(OC)c1 (stereo not given)	>57	i
107	C=CCSC[C@@H]1Nc2cc(Cl)c(S(N)(=O)=O)cc2S(=O)(=O)N1	.	i
108	O=S(=O)(NCc1cccs1)c1cccc2cccnc12	.	i
109	COc1ccc(OCCSc2nnc(-c3ccccc3)n2N)cc1	>57	i
110	CCN(CC)C(=O)c1c[nH]c2ccc(S(=O)(=O)Nc3cc(C)cc(C)c3)cc2c1=O	>57	i
111	CCOCC(=O)Nc1ccc(S(=O)(=O)Nc2ncccn2)cc1	>57	i
112	CCCCCn1ccc(=N)cc1	>57	i
113	Cc1c(C(=O)Nc2ccc3c(c2)OCO3)sc2nc(-c3ccccc3)cn12	>57	i
114	CCOc1ccc(NC(=O)COc2nsnc2N2CCCCC2)cc1	>57	i
115	NCC(=O)NC1(C(=O)O)CCCC1	.	i
116	N#Cc1nc(-c2cccc3ccccc23)oc1NCCN1CCOCC1	.	i
117	O=C(NCc1ccc(Cl)cc1)c1noc2c1CCCC2	>57	i
118	COc1ccc2c(c1OC)C(=O)N1c3cccc(Cl)c3C(=O)OC21 (stereo not given)	>57	i
119	CCOC(=O)N1CCN(C(=O)c2ccc(CNS(=O)(=O)c3ccc(OC)cc3)cc2)CC1	>57	i
120	O=C(CC1CCCCC1)NCCCN1CCOCC1	.	i
121	O=C(Nc1ccccc1)N(CCN1CCOCC1)Cc1cccc(Cl)c1	>57	i
122	O=C(C1CCN(S(=O)(=O)Cc2ccccc2)CC1)N1CCN(c2ncccn2)CC1	>57	i
123	CCCOc1ccc(C2c3c(oc4ccccc4c3=O)C(=O)N2CCN(CC)CC)cc1OC (stereo not given)	>57	i
124	COc1ccccc1Cn1c2nc3ccccc3nc2c2c(=O)n(CC(C)C)cnc21	>26	.
125	Cc1ccc(-c2noc(C3CCN(S(C)(=O)=O)CC3)n2)o1	>57	i
126	Cc1nn(CC(=O)NCC2CCCO2)c(=O)c2ccccc12 (stereo not given)	>57	i
127	O=C(CN1C(=O)C2(OCCO2)c2ccccc21)c1ccc(F)cc1	>57	i

Compound profiles (already shown). Screens in order: Bst PK mod | TsaE inh
`COCCNC(=O)[C@@]1(C)C=C[C@@H](Cc2ccccc2)N1C(=O)c1ccccc1` is entered as . | i
`CCOc1ccc(NC(=O)COc2nsnc2N2CCCCC2)cc1` is entered as >57 | i
`COc1cc2cc(CN(CCN3CCCC3)C(=O)Nc3ccccc3Cl)c(=O)[nH]c2cc1OC` is entered as >57 | i
`C=CCSC[C@@H]1Nc2cc(Cl)c(S(N)(=O)=O)cc2S(=O)(=O)N1` is entered as . | i
